LYPLA2 counter: counter-screen for PME1 inhibitors: inhibitors of human LYPLA2. actives 0.38% (n = 320,000). O95372. recombinant LYPLA2, FP-Rh probe fluorescence polarization. inhibition, % at 5.9 µM;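 active means inhibition above the screen-wide mean plus 3 SD, limit set per campaign, cut at about 26% in these data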;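 further: 0% = LYPLA2 with DMSO and 100% = wells lacking LYPLA2 enzyme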
GSTO1 counter: counter-screen for RBBP9 inhibitors: inhibitors of human GSTO1 | P78417 | recombinant GSTO1, activity-based probe fluorescence polarization | actives 1.1% (n = 300,000) | inhibition, % at 5.96 µM;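 active means inhibition above the campaign mean inhibition plus 3 SD, cut at about 35% in these data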;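 further: 0% = GSTO1-1 with DMSO and 100% = wells lacking GSTO1-1 enzyme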
Target sequence (P78417 whole entry, looked up): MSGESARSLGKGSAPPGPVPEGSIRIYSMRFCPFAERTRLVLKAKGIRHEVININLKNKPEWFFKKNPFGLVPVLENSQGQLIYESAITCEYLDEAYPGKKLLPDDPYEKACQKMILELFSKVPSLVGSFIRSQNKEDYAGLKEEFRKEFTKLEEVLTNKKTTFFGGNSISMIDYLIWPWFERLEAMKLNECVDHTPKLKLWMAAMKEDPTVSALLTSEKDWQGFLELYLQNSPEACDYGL
PAFAH1B3 inh: blocks human PAF acetylhydrolase 1B catalytic subunit 3; AID 492972; actives 0.28% (n = 340,000); recombinant PAFAH1B3, FP-rhodamine probe, fluorescence polarization; inhibition, % at 3.39 µM;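 active means inhibition above the screen-wide average of all tested compounds plus 3 SD, cut at about 25% in these data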;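 further: 0% = enzyme with DMSO only and 100% = wells lacking PAFAH1B3 protein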
PAD4 inh: blocks human protein arginine deiminase 4. Q9UM07. recombinant PAD4, RCA probe fluorescence polarization. inhibition, % at 6.36 µM. actives 0.41% (n = 330,000). AID 485272;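 active means percent inhibition above a cutoff equal to the mean of all tested compounds plus 3 SD, cut at about 15% in these data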;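 further: 0% = PAD4 with RCA probe and DMSO and 100% = probe without PAD4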
PAFAH2 inh: inhibitors of human PAFAH2; actives 0.99% (n = 340,000); Q99487; recombinant PAFAH2, FP-rhodamine activity probe, fluorescence polarization; inhibition, % at 3.39 µM;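 active means inhibition above the mean over all tested compounds plus 3 SD, cut at about 30% in these data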;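 further: inhibitors block probe labeling of enzyme so polarization drops; 0% = enzyme with DMSO and 100% = wells lacking PAFAH2 protein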
pPAFAH inh: pPAFAH (human) enzyme inhibition; Q13093; recombinant pPAFAH, FP-rhodamine probe fluorescence polarization; inhibition, % at 3.39 µM; actives 1.5% (n = 330,000); AID 463082;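 active means inhibition above the mean inhibition across the screen plus 3 SD, cut at about 25% in these data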;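 further: inhibitors block binding of the rhodamine activity-based probe so polarization drops; 0% = enzyme with DMSO and 100% = wells lacking pPAFAH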
Target sequence (Q13093 whole entry, looked up): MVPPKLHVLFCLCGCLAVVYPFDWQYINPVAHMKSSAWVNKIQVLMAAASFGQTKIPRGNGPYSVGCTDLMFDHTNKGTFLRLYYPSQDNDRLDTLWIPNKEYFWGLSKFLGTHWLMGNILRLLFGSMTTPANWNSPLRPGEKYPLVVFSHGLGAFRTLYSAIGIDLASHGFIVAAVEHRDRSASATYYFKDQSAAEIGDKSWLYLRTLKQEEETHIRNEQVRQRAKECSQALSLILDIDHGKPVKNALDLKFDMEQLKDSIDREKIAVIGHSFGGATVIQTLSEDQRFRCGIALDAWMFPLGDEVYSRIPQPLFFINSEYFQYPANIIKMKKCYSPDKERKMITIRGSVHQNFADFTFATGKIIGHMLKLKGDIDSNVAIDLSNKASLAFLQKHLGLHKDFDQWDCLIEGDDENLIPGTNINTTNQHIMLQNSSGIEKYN
LYPLA1 inh: counter-screen for PME1 inhibitors: inhibitors of human LYPLA1 | recombinant LYPLA1, FP-Rh probe fluorescence polarization | actives 0.16% (n = 320,000) | AID 2174 | inhibition, % at 5.9 µM | O75608;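 active means inhibition above the mean of all tested compounds plus 3 SD, set per campaign, cut at about 14% in these data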;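 further: inhibitors block serine hydrolase probe labeling of LYPLA1 so polarization falls; 0% = enzyme with DMSO and 100% = wells lacking LYPLA1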
PAFAH1B2 inh: blocks human PAF acetylhydrolase 1b catalytic subunit 2 | AID 492953 | actives 1.2% (n = 340,000) | recombinant PAFAH1B2, FP-rhodamine activity probe, fluorescence polarization | P68402 | inhibition, % at 3.39 µM;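 active means inhibition above the mean of all tested compounds plus 3 SD, cut at about 24% in these data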;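 further: 0% = enzyme with DMSO and 100% = wells lacking PAFAH1B2; many of its hits are not listed in these tables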
Target sequence (P68402 whole entry, looked up): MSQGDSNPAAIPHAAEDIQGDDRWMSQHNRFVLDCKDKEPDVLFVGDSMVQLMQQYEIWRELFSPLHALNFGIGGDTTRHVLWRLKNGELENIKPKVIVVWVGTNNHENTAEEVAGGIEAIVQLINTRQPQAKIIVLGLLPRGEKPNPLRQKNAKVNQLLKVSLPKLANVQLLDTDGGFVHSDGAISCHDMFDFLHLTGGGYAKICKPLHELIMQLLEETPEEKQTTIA
Starred values were filed as active, the others as inactive; · = no result given. This is a subset; count on the stated rates, not on these rows.

smiles | LYPLA1 inh | PAD4 inh | LYPLA2 counter | PAFAH1B3 inh | GSTO1 counter | pPAFAH inh | PAFAH2 inh | PAFAH1B2 inh
CCOc1ccc2nc(N3CCC(C(=O)N4CCN(c5ccccn5)CC4)CC3)sc2c1 | 3 | -7 | 18 | 5 | -7 | -2 | 1 | 4
CCOC(=O)c1c(C)n(C)c2ccc(OC)c(NC(=O)CCN3CCC(Cc4ccccc4)CC3)c12 | -2 | 1 | 2 | 9 | -1 | 1 | 2 | 7
Cc1ccc(C2=NN(C)c3nc4ccccc4n3C2)cc1 | -3 | -4 | -1 | 4 | 1 | 5 | -1 | -4
Cc1c(/C=N/NC(=O)c2ccccc2O)c2ccccn2c1C(=O)c1ccc(F)cc1 | -10 | -5 | 1 | 15 | 5 | 24 | 0 | 6
Clc1ccc(Cn2nnc(-c3ccc(N4CCOCC4)cc3)n2)cc1 | 1 | -4 | 2 | 7 | -1 | 4 | 0 | 7
Nc1nc2n(n1)C(c1ccco1)CC(c1ccc(Cl)c(Cl)c1)N2 (stereo not given) | -8 | 3 | 14 | 3 | -6 | 11 | 4 | 4
CCCCN(C)C(=O)C1CCN(c2ccc(S(=O)(=O)N3CCOCC3)cc2[N+](=O)[O-])CC1 | 0 | -1 | 2 | 8 | 7 | 4 | 3 | 2
O=C(Oc1coc(CSc2ncccn2)cc1=O)c1cccs1 | -3 | 5 | 1 | 7 | 6 | 7 | 0 | 1
O=C(Oc1coc(CSc2nnc(NC(=O)C3CC3)s2)cc1=O)c1ccccc1 | 5 | 0 | 2 | -4 | 8 | 6 | 8 | 4
COc1ccc(S(=O)(=O)C(C#N)c2nc3ccccc3nc2N2CCCC(C)C2)cc1 (stereo not given) | 0 | -4 | -1 | 7 | -66 | 1 | 31* | 7
COc1ccc(C)cc1NC(=O)CSc1ccc(-c2ccccn2)nn1 | 2 | 1 | 4 | 11 | 25 | 3 | 3 | 5
Cn1c(NCC(O)CO)nc2c1c(=O)n(Cc1ccc(Cl)c(Cl)c1)c(=O)n2C (stereo not given) | 3 | 4 | 7 | -6 | 3 | 5 | 3 | 6
Cc1ccc(C(=O)Cn2c(=N)n(CCN3CCOCC3)c3ccccc32)cc1 | -3 | -1 | 1 | 2 | · | 7 | -3 | 8
O=C(CSC1=NCCS1)N1CCN(c2ccc(Cl)cc2)CC1 | 0 | 0 | -3 | 12 | -7 | 4 | 1 | 10
COc1cccc(N2CCN(Cc3nc4scc(-c5ccccc5)c4c(=O)[nH]3)CC2)c1 | -5 | -2 | 2 | -3 | -5 | -3 | 8 | -1
Cc1cc(=O)oc2c(C)c(OCC(=O)NC3CC(C)(C)NC(C)(C)C3)ccc12 | -3 | -1 | -4 | 4 | 1 | 4 | -4 | 8
CC(=O)c1ccc(NC(=O)CSc2ccc(-c3ccco3)nn2)cc1 | 6 | 4 | 4 | 4 | 6 | 6 | 7 | 5
COC(=O)c1[nH]c2ccc(C)cc2c1NC(=O)CCN1CCN(Cc2ccc3c(c2)OCO3)CC1 | 0 | 0 | 3 | -4 | 0 | -2 | 2 | 2
CCOc1ccc(-n2c(SCC(=O)Nc3ccc(OC)cc3OC)nc3c(c2=O)SCC3)cc1 | -4 | 0 | -3 | -7 | 2 | 0 | -5 | -1
O=C(c1cccc(C(=O)N2CCN(c3ccccc3)CC2)c1)N1CCN(c2ccccc2)CC1 | -4 | -2 | -3 | 2 | 2 | 2 | 2 | -3
Cc1c(Cl)cccc1-c1ccc(CNCc2ccccn2)o1 | -2 | 3 | 4 | 0 | 3 | 7 | -4 | 0
COC(=O)c1ccc(C2C(C(=O)c3cc4ccccc4o3)=C(O)C(=O)N2CCCN(C)C)cc1 (stereo not given) | 2 | -8 | 3 | 4 | 9 | 6 | 2 | 8
COc1ccc(-c2ccc(S(=O)(=O)n3nc(OC(=O)c4cccs4)cc3N)cc2)cc1 | -15 | 2 | -24 | -10 | 12 | -3 | -11 | -2
Cn1c(OCc2ccc3c(c2)OCO3)nc2c1c(=O)n(Cc1ccc(Cl)c(Cl)c1)c(=O)n2C | -1 | -3 | 2 | 8 | -16 | 7 | -6 | -1
CCc1ccc(C(C(=O)NC2CCCCC2)N(C(=O)c2ccccn2)c2cccnc2)cc1 (stereo not given) | 1 | -2 | -2 | · | 15 | 2 | · | ·
CCOC(=O)c1[nH]c2ccc(OC)cc2c1NC(=O)CCN1CCc2ccccc2C1 | -1 | 0 | -5 | 8 | 3 | 7 | 8 | -2
COc1ccc(CC(C)Nc2ccccc2F)cc1 (stereo not given) | 0 | 2 | 0 | 3 | -1 | 0 | -2 | 4
O=C(CCC(=O)N1CCOc2ccccc21)NCCc1ccccc1 | -3 | -2 | -1 | 2 | 4 | 0 | 5 | 3
COC(=O)c1cc(=O)n(Cc2ccc(OC)c(OC)c2)c(=Nc2ccc(F)cc2)s1 | -6 | -3 | -8 | 3 | 3 | 5 | -8 | 6
Cc1cccc(S(=O)(=O)C(C#N)c2nc3ccccc3nc2N2CCCC2)c1 (stereo not given) | -5 | -9 | -3 | 9 | 4 | 6 | 3 | -1
Cc1ccccc1CNC(=O)CCC(=O)N1CCOc2ccccc21 | 1 | -2 | 7 | 3 | 1 | 0 | 8 | 3
O=C(c1ccc(Br)o1)N1CCN(c2ccc(F)cc2)CC1 | -2 | 4 | -1 | -2 | -1 | 2 | -2 | 0
COc1ccc(C(=O)Oc2ccc(/C=N/Nc3ccc(Cl)c(C(=O)O)c3)cc2OC)cc1 | 2 | -5 | 16 | 12 | 18 | 20 | 7 | 10
Cc1ccc2nc(SCC(=O)Nc3cc(C)on3)c(C)cc2c1 | -1 | -3 | -1 | -9 | 0 | 4 | -10 | -5
O=C(C1=C(O)C(=O)N(CCN2CCOCC2)C1c1ccc(Br)cc1)c1cc2ccccc2o1 (stereo not given) | 2 | -1 | 2 | -3 | 0 | 8 | 18 | 5
O=C(N1CCN(c2ccc(F)cc2)CC1)C12CC3CC(CC(C3)C1)C2 | -3 | 2 | -6 | -4 | 2 | -1 | -10 | 4
CC(=O)N1CCN(c2ccc(C(N)=O)cc2[N+](=O)[O-])CC1 | -1 | -3 | -2 | 3 | 3 | 3 | 2 | 5
Cn1c(=O)n(Cc2ccccc2F)c(=O)c2c1nc1n2CCCN1CCc1ccccc1 | 0 | -1 | 1 | 6 | -4 | 4 | 4 | 1
C/C(Cn1nnc2ccccc21)=N/OC(=O)c1c(F)cccc1F | 4 | -4 | -3 | 5 | 8 | 11 | 17 | 10
CN(C)c1ccc(/C=N/NC(=O)C2CC2c2ccccc2)cc1 (stereo not given) | 6 | 2 | 14 | 7 | 6 | 5 | 4 | 9
COc1cccc(-n2c(SCC(N)=O)nnc2-c2ccncc2)c1 | -4 | -4 | -4 | -2 | 0 | 7 | 10 | 4
C/C(=N/OC(=O)c1c(F)cccc1F)c1nccs1 | 2 | 1 | 2 | 1 | 11 | 8 | 24 | 6
Cc1oc(-c2cccc(Cl)c2)nc1CN1CCC(C(=O)NCCCN2CC(C)CC(C)C2)CC1 (stereo not given) | 1 | 1 | -2 | 5 | -5 | -1 | 6 | 6
C=CCn1c(=O)c2c(nc3n2CCCN3CCc2ccccc2)n(C)c1=O | 7 | 7 | 8 | -3 | 0 | 0 | -3 | -3
COc1ccc(C(=O)Oc2ccc(Br)cc2C(=S)N2CCOCC2)cc1 | -4 | 1 | 0 | 8 | 0 | 18 | 52* | 2
CCN1CCCC1CNC(=O)C1CCN(Cc2nc(-c3cccc(Br)c3)oc2C)CC1 (stereo not given) | -5 | 3 | 2 | -1 | 1 | 3 | -3 | 1
CCN1CCN(C(=O)c2ccccc2Nc2ccc(SC(F)F)cc2)CC1 | -1 | -5 | -2 | 7 | -1 | 9 | 4 | 2
COc1cccc(C(=O)NCC(=O)N/N=C/c2ccc(OC(=O)c3cccs3)c(OC)c2)c1 | -4 | -5 | -4 | 5 | -6 | 0 | -12 | 3
COc1ccc(CCC(C)NCC(C)c2ccccc2)cc1 (stereo not given) | 4 | -6 | 7 | 10 | 5 | -6 | -3 | 4
CC[C@@H](C)[C@H](NC(=O)CCc1c(C)c2cc3c4c(oc3c(C)c2oc1=O)CCCC4)C(=O)O | -5 | -4 | -2 | 6 | -2 | 1 | 2 | -1

Other structures:
smiles | LYPLA1 inh | PAD4 inh | LYPLA2 counter | PAFAH1B3 inh | GSTO1 counter | pPAFAH inh | PAFAH2 inh | PAFAH1B2 inh
CC1(C)CC(NC(=O)COc2ccc3c4c(c(=O)oc3c2)CCCC4)CC(C)(C)N1 | 1 | -3 | -2 | 9 | -2 | 2 | 4 | 1
c1ccc(COc2ccc(Nc3ncnc4nc[nH]c34)cc2)cc1 | -4 | -9 | 0 | 6 | -3 | 7 | 15 | 11
CCN1CCN(CCCNC(=O)c2ccc3c(c2)N(Cc2ccc(C)cc2)CCS3)CC1 | 1 | -3 | 14 | 7 | 4 | 11 | 4 | 4
Cn1c(=O)n(Cc2ccccc2)c(=O)c2c1nc1n2CCCN1CCc1ccccc1 | -3 | -1 | -4 | 2 | 0 | 9 | 3 | 1
CCOC(=O)N1CCC(N2Cc3cccc(C(=O)N4CCN(c5cccc(Cl)c5)CC4)c3C2=O)CC1 | 6 | 1 | 3 | 3 | 7 | 1 | 0 | 1
N#Cc1c(SCC(=O)Nc2ccc(Cl)cc2Cl)sc2c(O)cc(=O)[nH]c12 | -16 | -11 | -21 | 8 | -1 | 30* | 10 | 1
COc1ccc(C2CC(c3ccc(Br)cc3)Nc3nc(N)nn32)cc1 (stereo not given) | 0 | -1 | 7 | -4 | 0 | 5 | 4 | 9
Cc1cc(-n2c(C)c3c(C)nnc(C)c3c2C)ccc1N | 1 | 2 | 4 | · | 22 | 10 | · | ·
Cc1ccn2c(=O)nc(SCC(=O)Nc3cccc4ccccc34)nc2c1 | -4 | 4 | 2 | 4 | 4 | 3 | 4 | 1
c1ccc2c(Nc3nc4c(s3)CCCC4)cccc2c1 | 0 | 0 | 3 | 1 | 5 | 9 | -9 | 3
CC(=O)N1CCC(=NNc2ccc(S(=O)(=O)N3CCOCC3)cc2[N+](=O)[O-])CC1 | 4 | -1 | 12 | 7 | 4 | -3 | -3 | 9
CC(=O)Nc1sc2c(c1C(c1ccccc1Cl)N1CCN(CCO)CC1)CCCC2 (stereo not given) | 0 | -4 | -6 | 3 | 2 | 0 | 7 | 2
O=C(Cn1c(CC(=O)N2CCOCC2)nc2ccccc21)Nc1ccc2c(c1)OC(F)(F)O2 | -1 | 0 | 2 | 4 | 1 | 1 | -3 | 4
CCOC(=O)c1cnc(-n2nc(C)cc2C)nc1NC(C)c1ccccc1 (stereo not given) | -3 | 4 | -1 | 7 | -3 | 5 | -2 | 2
CCOC(=O)c1[nH]c2ccc(OC)cc2c1NC(=O)CN1CCC2(CC1)OCCO2 | -3 | -1 | -3 | 6 | -4 | 3 | 5 | -2
Cc1ccn2c(=O)nc(SCC(=O)NCc3ccc4c(c3)OCO4)nc2c1 | 4 | -5 | 9 | 3 | 7 | 10 | -12 | 6
Cn1c(NCCCN2CCOCC2)nc2c1c(=O)n(Cc1ccc(Cl)c(Cl)c1)c(=O)n2C | 4 | 3 | 11 | 6 | 0 | 13 | 4 | 4
Cc1ccn2c(=O)nc(SCC(=O)OCc3ccccc3)nc2c1 | 5 | -2 | 5 | 4 | 5 | 16 | 8 | -1
O=C(CSc1ccc(-c2cccs2)nn1)Nc1ccccc1 | -6 | -4 | -7 | 5 | 6 | -5 | -14 | 3
Cc1c(Cl)cccc1NC(=O)CSc1sc2c(O)cc(=O)[nH]c2c1C#N | -16 | -5 | 0 | 4 | 19 | 20 | -1 | 8
CCCS(=O)(=O)N1CCCC(C(=O)Oc2ccc(Cl)cc2)C1 (stereo not given) | 3 | -4 | 9 | 4 | -2 | -2 | -8 | 3

Assay outcomes (PubChem)
